# Screening results: PubChem, The Scripps Research Institute Molecular Screening Center
# Tn7 DDE FP: disrupts Tn7 cyclic peptide binding to fibrin D-Dimer-E complex; FP displacement of FITC-Tn7 peptide from fibrin DD(E); 0% = median of compound wells per plate; inhibition, % at 8.3 µM; 370,000 compounds, 0.13% hits; P02675; AID 720508;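 active means inhibition above the mean of compounds falling within the control limits plus 3 SD of them, cut at about 14% in these data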;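 further: 0% = plate median of compound wells and 100% = 10 µM Aha-Tn7 peptide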
#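 Test system: human clot-derived fibrin DD(E) complex / Quantity: 2 µM final DD(E) protein / Incubation: 10 min plus 3 h, room temperature / Measured by: fluorescence polarization / Benchmarks: high control of 10 µM Aha-Tn7 peptide / Replicates: singlicate testing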
# PRMT1 inh: PRMT1 (human) inhibition, primary screen | 370,000 compounds, 1.3% hits | Q99873 | AID 652257 | inhibition, % at 2.79 µM | recombinant PRMT1, activity-based probe fluorescence polarization;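 active means inhibition above about 21% made by adding two undisclosed values, limit read from the data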
# Target sequence (Q99873 whole entry, looked up): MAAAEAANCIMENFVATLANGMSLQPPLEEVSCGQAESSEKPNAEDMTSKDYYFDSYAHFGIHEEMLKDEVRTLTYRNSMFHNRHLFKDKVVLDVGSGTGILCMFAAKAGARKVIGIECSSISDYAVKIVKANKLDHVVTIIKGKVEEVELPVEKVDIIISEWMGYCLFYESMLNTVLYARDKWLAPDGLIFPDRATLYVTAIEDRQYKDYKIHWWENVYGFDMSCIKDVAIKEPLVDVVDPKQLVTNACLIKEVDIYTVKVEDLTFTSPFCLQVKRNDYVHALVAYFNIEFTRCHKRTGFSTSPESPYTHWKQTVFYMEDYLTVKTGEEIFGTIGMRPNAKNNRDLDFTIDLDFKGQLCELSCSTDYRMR
# TDP2 inh: blocks human TDP2 phosphodiesterase activity. O95551. inhibition, % at 12.8 µM. 370,000 compounds, 0.34% hits. recombinant TDP2, T5PNP hydrolysis, p-nitrophenol absorbance 415 nm;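 active means inhibition above the mean of all tested compounds plus 3 SD, set per campaign, cut at about 25% in these data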;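 further: 0% = DMSO with enzyme and 100% = buffer with substrate but no TDP2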
#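 Read-out basis: percent inhibition. System: recombinant human TDP2. Buffer or medium: Mg2+-containing Tris-HCl buffer, pH 7.5. Repeats: single replicate. Timing: reaction 2 h, 37 °C. Benchmarks: high control without enzyme, low control DMSO plus TDP2. Probe or stimulus: 5 mM T5PNP. Doses: 12.8 µM only. Measured by: epi absorbance of p-nitrophenol freed from T5PNP by hydrolysis.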
# TCR-CD3 inh: inhibitors of human TCR-CD3 interaction; 360,000 compounds, 0.37% hits; inhibition, % at 9.4 µM; TAMRA-labeled TCR probe fluorescence, biochemical; in the data active means inhibition above about 19%;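 further: recombinant mutant TCR 2C K166C tagged with TAMRA read by polarization; 0% = receptor in buffer alone and 100% = receptor with positive control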
# MBD2 inh: inhibitors of human MBD2 binding to methylated oligonucleotide; Q9UBB5; TR-FRET; inhibition, % at 4.4 µM; 370,000 compounds, 0.31% hits; in the data active means inhibition above about 13%
# Tn6 DDE FP: disrupts Tn6 cyclic peptide binding to fibrin D-Dimer-E complex. Fibrin DD(E) TRITC-Tn6 fluorescence polarization displacement. AID 720509. 370,000 compounds, 0.21% hits. P02675. inhibition, % at 8.3 µM;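 active means inhibition above a per-campaign cutoff: mean of compounds within control limits plus 3 SD, cut at about 15% in these data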;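 further: 0% = median of all compound wells on the plate and 100% = blocking peptide control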
# SIAE primary: human SIAE inhibition, primary screen | Q9HAT2 | SIAE FP-Rh probe binding, fluorescence polarization | 370,000 compounds, 0.69% hits | inhibition, % at 9.66 µM;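 active means inhibition above a cutoff: mean of compounds within the control limits plus 3 SD of those, cut at about 17% in these data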;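 further: 0% = plate median of compound wells and 100% = probe without SIAE protein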
# Target sequence (Q9HAT2 whole entry, looked up): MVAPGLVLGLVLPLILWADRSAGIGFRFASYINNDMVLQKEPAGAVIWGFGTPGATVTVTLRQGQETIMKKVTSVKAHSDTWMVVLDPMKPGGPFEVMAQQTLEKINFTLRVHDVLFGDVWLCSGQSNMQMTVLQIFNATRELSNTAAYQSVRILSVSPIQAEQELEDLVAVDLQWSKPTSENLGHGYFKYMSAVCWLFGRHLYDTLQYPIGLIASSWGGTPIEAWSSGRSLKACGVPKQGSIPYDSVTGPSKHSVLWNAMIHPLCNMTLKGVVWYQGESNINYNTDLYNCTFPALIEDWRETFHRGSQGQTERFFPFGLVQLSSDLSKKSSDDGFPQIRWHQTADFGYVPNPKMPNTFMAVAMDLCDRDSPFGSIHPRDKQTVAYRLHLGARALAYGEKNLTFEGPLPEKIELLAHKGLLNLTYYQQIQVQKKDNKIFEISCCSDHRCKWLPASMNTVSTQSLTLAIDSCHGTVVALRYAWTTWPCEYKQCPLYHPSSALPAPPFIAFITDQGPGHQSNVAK
# UHRF1 MBD2 ctr: blocks human UHRF1 binding to methylated DNA; UHRF1 binding to methylated oligo, TR-FRET; inhibition, % at 4.4 µM; 370,000 compounds, 0.75% hits; AID 687016; in the data active means inhibition above about 21%;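 further: UHRF1 SRA domain binding a hemimethylated CpG hairpin DNA probe; 0% = median of test compound wells and 100% = reference inhibitor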
# LEDGF integ inh: blocks HIV-1 LEDGF/p75-dependent DNA integration. AID 743269. TR-FRET IN-LEDGF/p75 DNA integration, Eu/Cy5. inhibition, % at 3.7 µM. 370,000 compounds, 0.64% hits;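 active means inhibition above the screen-wide mean plus 3 SD, cut at about 13% in these data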;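 further: signal is the Cy5 over europium emission ratio at 671 and 618 nm; 0% = plate median of compound wells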
# Starred values were filed as active, the others as inactive. Only part of the results is shown (hit frequency here may not be typical).
# Every second line gives: LEDGF integ inh, MBD2 inh, UHRF1 MBD2 ctr, PRMT1 inh, TDP2 inh, SIAE primary, TCR-CD3 inh, Tn6 DDE FP, Tn7 DDE FP
(1) CCCc1c(O)nc(SC2CC(=O)N(c3ccc(C)c(Cl)c3)C2=O)[nH]c1=O (centres undefined)
 : 1, 0, -1, 0, 8, -2, -3, 0, -6
(2) COc1cccc(-n2c([S-])c(C(=O)Nc3ccc(S(=O)(=O)N4CCOCC4)cc3)[n+]3cc(C(N)=O)ccc23)c1
 : -3, 0, -1, 10, 2, -12, 0, -7, -2
(3) Cc1cc(Cl)ccc1C(=O)C1CCCN(C(=O)c2cscn2)C1 (centres undefined)
 : 1, 1, 0, 0, 9, 1, 6, 2, 13
(4) COc1ccc(OCCSc2nnnn2C2CCCCC2)cc1
 : -2, -3, 0, -1, 5, 1, 10, 7, 6
(5) CCOC(=O)N1CCN(Cc2nc(-c3cccc(Cl)c3)no2)CC1
 : -2, -2, 1, -3, 8, 10, -3, -8, -2
(6) Cc1ccc(-c2onc3ccc(C(=O)O)cc23)cc1
 : -3, -3, -3, 15, -3, -1, -3, 2, 1
(7) CCc1ccc(N(CC(=O)NC(C)C)C(=O)CCC(=O)Nc2ccccn2)cc1
 : 1, -1, -1, -3, 9, 4, 1, -2, -2
(8) CC1=C(CO)C(=O)OC([C@@H](C)C2CC[C@H]3C4C[C@H]5O[C@]56[C@@H](O)C=CC(=O)[C@]6(C)C4CC[C@]23C)C1 (some centres undefined)
 : 1, 2, 1, 9, 14, 15, -1, -5, -9
(9) O=C(N/C(=C/c1ccc(Cl)cc1)C(=O)N1CCOCC1)c1ccccc1
 : 2, 2, -2, -2, 16, 4, -3, -6, 3
(10) O=C(CSc1n[nH]c(-c2cccnc2)n1)Nc1ccccc1C(F)(F)F
 : 1, 2, 3, -2, -8, 6, -13, -1, 7
(11) CCOC(=O)c1c(C)[nH]c(C)c1S(=O)(=O)NCC1CCN(Cc2ccccc2OC)CC1
 : 2, -3, -2, -4, 2, 8, 4, 5, 0
(12) Cc1c(OCC(=O)OC(C)C)ccc2c3c(c(=O)oc12)CCC3
 : 7, 2, 4, -3, -16, -5, -3, -6, 4
(13) O=C(CCN1C(=O)c2ccccc2C1=O)N1CCN(C2c3ccccc3-c3ccccc32)CC1
 : -2, 0, 3, 2, 3, -3, -6, 4, 1
(14) COc1cccc(C(=O)NN/C(C)=C/C(=O)C(F)(F)C(F)(F)C(F)(F)F)c1
 : 1, 2, -4, -1, -7, 1, 4, 3, -4
(15) CC(C)(C)Cc1nnc(NS(=O)(=O)c2ccc([N+](=O)[O-])cc2)s1
 : -1, 2, -1, -2, 5, -9, 0, 9, -2
(16) O=C(NCc1cn(-c2ccccc2)nc1-c1ccccc1)c1cccc([N+](=O)[O-])c1
 : 1, 6, 4, 4, -7, -27, -5, 1, 0
(17) Cc1nnnn1-c1cccc(C(=O)O)c1
 : 1, 2, -1, -3, -2, 11, 5, 2, 2
(18) N#C/C(=C/c1cccnc1)c1ccccc1
 : 6, 1, 2, -1, -5, 5, -10, -1, -8
(19) CN(C)S(=O)(=O)c1cc(C(=O)Nc2ccn(C)n2)c(Cl)cc1Cl
 : 0, 1, 0, -1, 3, -2, 3, 6, -2
(20) CC(C)COC(=O)Nc1nnc(SCCOc2ccccc2)s1
 : -1, 2, 0, 1, 2, 6, 4, -1, 2
(21) Cc1c(C(=O)N2CCCCC2)c(S(=O)(=O)NCCc2ccc(Cl)cc2)c(C)n1C
 : 3, -5, -2, -6, 5, -1, 6, 5, 5
(22) O=C(N/C(=C\c1ccc([N+](=O)[O-])cc1)C(=O)N1CCOCC1)c1ccccc1
 : -4, 4, 1, 3, 1, -1, -5, 13, 2
(23) O=C(NCc1ccc2c(c1)OCO2)C(=O)NCC1OCCN1S(=O)(=O)c1ccccc1 (centres undefined)
 : 1, 4, 1, 4, -2, 0, -1, -1, -2
(24) O=C(NC1CCS(=O)(=O)C1)c1c(NC(=O)C2COc3ccccc3O2)sc2c1CCCC2 (centres undefined)
 : 1, 3, 10, -1, -16, -17, -2, -6, -7
(25) c1csc(-c2ccn[nH]2)c1
 : 2, 0, 3, -2, -10, 1, -6, -2, -6
(26) CN1CCN(C(=S)c2cn(Cc3ccccc3F)c3ccccc23)CC1
 : 8, 1, -1, -4, -12, 10, 0, -4, 1
(27) CC1(C)[C@@H](O)CC[C@]2(C)[C@H]3C(=O)C=C4[C@@H]5C[C@@](C)(C(=O)O)CC[C@]5(C)CC[C@@]4(C)[C@]3(C)CC[C@@H]12
 : 5, 0, 2, -9, -7, -8, 4, 6, -5
(28) O=C(CCC1CCCN(C(=O)c2cccc(F)c2)C1)N1CCN(c2ccccn2)CC1 (centres undefined)
 : -1, 7, 19, 6, 4, 0, 0, -5, 0
(29) Cc1ccc(-c2cc(C(F)F)nc(N3CCOCC3)n2)cc1
 : 0, 3, -5, -1, 6, -3, 1, -7, -1
(30) CCc1ccc(Cn2nnc(C(=O)NCc3ccccc3OC)c2N)cc1
 : -2, 2, 1, -3, 1, -7, 4, -2, 0

# Part of the list above in order of length of the SMILES, rising.
# Every second line gives: LEDGF integ inh, MBD2 inh, UHRF1 MBD2 ctr, PRMT1 inh, TDP2 inh, SIAE primary, TCR-CD3 inh, Tn6 DDE FP, Tn7 DDE FP
(25) c1csc(-c2ccn[nH]2)c1
 : 2, 0, 3, -2, -10, 1, -6, -2, -6
(28) O=C(CCC1CCCN(C(=O)c2cccc(F)c2)C1)N1CCN(c2ccccn2)CC1 (centres undefined)
 : -1, 7, 19, 6, 4, 0, 0, -5, 0
(22) O=C(N/C(=C\c1ccc([N+](=O)[O-])cc1)C(=O)N1CCOCC1)c1ccccc1
 : -4, 4, 1, 3, 1, -1, -5, 13, 2

# Part of the list above in order of molar mass, low to high:
# Every second line gives: LEDGF integ inh, MBD2 inh, UHRF1 MBD2 ctr, PRMT1 inh, TDP2 inh, SIAE primary, TCR-CD3 inh, Tn6 DDE FP, Tn7 DDE FP
(25) c1csc(-c2ccn[nH]2)c1
 : 2, 0, 3, -2, -10, 1, -6, -2, -6
(17) Cc1nnnn1-c1cccc(C(=O)O)c1
 : 1, 2, -1, -3, -2, 11, 5, 2, 2
(18) N#C/C(=C/c1cccnc1)c1ccccc1
 : 6, 1, 2, -1, -5, 5, -10, -1, -8
(29) Cc1ccc(-c2cc(C(F)F)nc(N3CCOCC3)n2)cc1
 : 0, 3, -5, -1, 6, -3, 1, -7, -1
(12) Cc1c(OCC(=O)OC(C)C)ccc2c3c(c(=O)oc12)CCC3
 : 7, 2, 4, -3, -16, -5, -3, -6, 4
(20) CC(C)COC(=O)Nc1nnc(SCCOc2ccccc2)s1
 : -1, 2, 0, 1, 2, 6, 4, -1, 2
(15) CC(C)(C)Cc1nnc(NS(=O)(=O)c2ccc([N+](=O)[O-])cc2)s1
 : -1, 2, -1, -2, 5, -9, 0, 9, -2
(26) CN1CCN(C(=S)c2cn(Cc3ccccc3F)c3ccccc23)CC1
 : 8, 1, -1, -4, -12, 10, 0, -4, 1
(19) CN(C)S(=O)(=O)c1cc(C(=O)Nc2ccn(C)n2)c(Cl)cc1Cl
 : 0, 1, 0, -1, 3, -2, 3, 6, -2
(16) O=C(NCc1cn(-c2ccccc2)nc1-c1ccccc1)c1cccc([N+](=O)[O-])c1
 : 1, 6, 4, 4, -7, -27, -5, 1, 0
(14) COc1cccc(C(=O)NN/C(C)=C/C(=O)C(F)(F)C(F)(F)C(F)(F)F)c1
 : 1, 2, -4, -1, -7, 1, 4, 3, -4
(28) O=C(CCC1CCCN(C(=O)c2cccc(F)c2)C1)N1CCN(c2ccccn2)CC1 (centres undefined)
 : -1, 7, 19, 6, 4, 0, 0, -5, 0
(21) Cc1c(C(=O)N2CCCCC2)c(S(=O)(=O)NCCc2ccc(Cl)cc2)c(C)n1C
 : 3, -5, -2, -6, 5, -1, 6, 5, 5
(23) O=C(NCc1ccc2c(c1)OCO2)C(=O)NCC1OCCN1S(=O)(=O)c1ccccc1 (centres undefined)
 : 1, 4, 1, 4, -2, 0, -1, -1, -2
(13) O=C(CCN1C(=O)c2ccccc2C1=O)N1CCN(C2c3ccccc3-c3ccccc32)CC1
 : -2, 0, 3, 2, 3, -3, -6, 4, 1
(27) CC1(C)[C@@H](O)CC[C@]2(C)[C@H]3C(=O)C=C4[C@@H]5C[C@@](C)(C(=O)O)CC[C@]5(C)CC[C@@]4(C)[C@]3(C)CC[C@@H]12
 : 5, 0, 2, -9, -7, -8, 4, 6, -5

# (next part)
# Every second line gives: LEDGF integ inh, MBD2 inh, UHRF1 MBD2 ctr, PRMT1 inh, TDP2 inh, SIAE primary, TCR-CD3 inh, Tn6 DDE FP, Tn7 DDE FP
(31) CCC(C)(C)NC(=O)CC(c1ccc(OC)cc1)n1cccc1 (centres undefined)
 : -2, -7, -1, 1, 9, 3, -3, -3, 3
(32) O=C(NCCCn1ccnc1)c1cc2c(ccc3ccccc32)o1
 : 2, -4, -5, 4, 7, -5, 0, 2, -2
(33) O=C(/C=C\c1ccco1)Nc1nc(-c2ccccc2)cs1
 : 5, 5, 1, 5, -2, -3, -3, -4, 1
(34) FC(F)(F)c1cc(-c2ccco2)nc2ncnn12
 : 0, 5, 1, -1, -5, 2, -8, -7, -5
(35) CSc1ccc(S(=O)(=O)N2CCC(C(=O)Nc3ccc(NC(C)=O)cc3)CC2)cc1
 : 7, -5, -1, 0, -15, -4, 3, -8, -3
(36) Brc1ccc(CSc2ccc3nnc(-c4cccnc4)n3n2)cc1
 : 4, 3, -3, -2, -5, 9, -5, -2, -3
(37) COc1ccc(C2=NN(C)C(=NCc3ccccc3)SC2)cc1
 : 0, -2, -2, -3, -5, 5, 4, 0, 5
